Sa helicase inh: S. aureus DNA helicase inhibition. purified S. aureus helicase, fluorescence unwinding assay; about half of the hits fall short of the stated cut. 0.05% of 120,000 active. inhibition, %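 (tested at about 80 µM)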;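 active means both duplicates at 50% or more, or one of them with a favoured structure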;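 further: 0% = mean of negative control wells and 100% = mean of positive control wells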
MgrA DNA FP: modulators of Staphylococcus aureus MgrA DNA binding; fluorescence polarization; inhibition, %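 (about 10 µg/mL by stock and volumes)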; 0.13% of 84,000 active; AID 602314;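 active means above 50% in either of two replicates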;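 further: 0% = protein plus DNA without compound and 100% = DNA alone without protein; higher means less MgrA bound to DNA so lower polarization; one replicate is shown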
* marks the source's active call; other numbers are inactive results; . = no result given. Not all compounds are listed. The share of hits here may be higher or lower than overall.

MgrA DNA FP | Sa helicase inh | Compound
-1.1 | . | CCN(CC)c1ccc2cc(C(=O)O)c(=O)oc2c1
1.5 | . | CN1CN=C(SCc2ccc(C#N)cc2)NC1
-1.5 | 6 | O=C1c2ccccc2C2(c3ccccc3)NCCCN12 (stereo not given)
0.1 | 13 | COc1ccc(C(=O)Nc2ccc3ncsc3c2)cc1
. | -20 | C=CCc1cc(C)ccc1OCC(O)Cn1c(CO)nc2ccccc21 (stereo not given)
5.7 | 12 | CC(=O)N1C(=O)N(C(C)=O)C(O)C1O (stereo not given)
. | 24 | COc1ccc(/C=C/C(=O)NCc2ccncc2)cc1
0.1 | 3 | CC(NCCCO)c1ccncc1 (stereo not given)
0.1 | . | O=C1Nc2ccccc2C1Cc1cccs1 (stereo not given)
. | -1 | CCCN(CCC)C(C(=O)Nc1cccc(OC)c1)c1ccccc1 (stereo not given)
. | 10 | COc1ccccc1C(=O)COC(=O)C1CC(=O)N(CCc2ccccc2)C1 (stereo not given)
. | -12 | CC(C(=O)NC1=NCCS1)N1C(=O)c2ccccc2C1=O (stereo not given)
. | 9 | CCCn1c(=O)c2c(nc3n2CCCN3c2ccc(OCC)cc2)n(C)c1=O
0.7 | . | O=C(OCCN1C(=O)c2cccc3c(N4CCOCC4)ccc(c23)C1=O)c1cccc(Br)c1
. | 14 | COc1ccc(C2CC(=O)N3CN(C(C)c4ccccc4)CSC3=C2C#N)cc1 (stereo not given)
1.4 | . | CC1=CC(=O)N(c2cscc2C)C1=O
. | 4 | COC(=O)c1ccc(COC(=O)Cn2c(C)csc2=O)cc1
. | -1 | O=C(Nc1nc2ccccc2n1CCOc1ccc(Cl)cc1)c1ccco1
. | -1 | CCN(CC(=O)Nc1ccccc1OC)CC(=O)Nc1cccc2nsnc12
. | -15 | CC(C)N(C(C)C)S(=O)(=O)c1ccc(Oc2ccc3c4c(c(=O)oc3c2)CCC4)nc1
. | 0 | CNCC(O)Cn1c2ccccc2c2ccccc21 (stereo not given)
-0.7 | . | CC(c1ccccc1)n1c(SCC(=O)c2csc3ccccc23)n[nH]c1=O (stereo not given)
1.3 | . | CC(C)c1ccc(/C=C2\CCc3ccccc3C2=O)cc1
1.0 | . | CCOC(=O)CSc1nc2ccc(C)cc2[nH]1
. | 3 | COc1ccc(Nc2nnc(C)c3ccccc23)cc1C(=O)N1CCCCC1

Rewritten as labelled records: 4 of the compounds above.
CNCC(O)Cn1c2ccccc2c2ccccc21 (stereo not given)
- MgrA DNA FP: .
- Sa helicase inh: 0

CC(c1ccccc1)n1c(SCC(=O)c2csc3ccccc23)n[nH]c1=O (stereo not given)
- MgrA DNA FP: -0.7
- Sa helicase inh: .

CC(C)c1ccc(/C=C2\CCc3ccccc3C2=O)cc1
- MgrA DNA FP: 1.3
- Sa helicase inh: .

CCOC(=O)CSc1nc2ccc(C)cc2[nH]1
- MgrA DNA FP: 1.0
- Sa helicase inh: .

The listing continues:
MgrA DNA FP | Sa helicase inh | Compound
. | -5 | O=C(N1CCCC1)C12CC3CC(CC(Cl)(C3)C1)C2
0.2 | 11 | COc1ccc(CNC(=O)Cn2nc(-c3ccccc3)ccc2=O)cc1
. | -9 | COc1ccccc1NC(=O)C1=C(C)OCCS1
9.2 | 7 | CC1=CC2=C(OC1N(C)C)c1cccc3cccc(c13)C2=O (stereo not given)
1.1 | -1 | O=C(/C=C/c1ccc(F)cc1)NC(=S)NCc1ccco1
-2.7 | . | Cc1c(C(=O)Cn2ccnc2)sc2ccc(Cl)cc12
5.7 | . | CCCCSc1nnc2c(n1)OC1(Nc3ccccc3-2)C(=O)Nc2ccc(F)cc21 (stereo not given)
-1.6 | 13 | Cc1cccc(Cn2c(SCc3ccc(C(=O)N4CCCCC4)cc3)nc3ccncc32)c1
-0.1 | 4 | Nc1nnc(SCC(=O)c2ccccc2)s1
. | -19 | COc1cc(OC)c(NC(=O)Cn2ncc3c4ccccc4n(C)c3c2=O)cc1Cl
. | 3 | Clc1ccc(-c2csc3ncnc(-n4ccnc4)c23)cc1
-1.3 | . | O=C1C2C3C=CC(C2C(=O)N1C1CCCCC1)C1C2C(=O)N(C4CCCCC4)C(=O)C2C31 (stereo not given)
1.1 | 9 | CC(=O)Oc1ccccc1C(=O)N1CCCc2ccccc21
2.3 | -15 | CN(C)N1C(=O)/C(=C/c2cccs2)SC1=Nc1ccccc1
-0.1 | 6 | COC(=O)Cn1c(O)c(N=NC(=O)C2COc3ccccc3O2)c2ccccc21 (stereo not given)
61* | . | Cc1ccc(C)n1C(CC(=O)O)c1ccsc1 (stereo not given)
. | 8 | COc1ccc(NC(=O)C(CSCc2ccccc2)N2Cc3ccccc3C2=O)cc1OC (stereo not given)
. | -12 | CCCCn1c(=O)[nH]c(=O)c2c(C(F)(F)F)cc(-c3ccc(OC)cc3)nc21
. | 3 | Cc1ccc(C)c(C(=O)CN2C(=O)NC3(CCc4ccccc43)C2=O)c1 (stereo not given)
. | -7 | COc1cc(C(=O)COC(=O)Cn2cnc3ccccc3c2=O)ccc1OC(F)F
-0.8 | . | S=C(NC1CCCCC1)N1CCC(C2C=NC=N2)CC1 (stereo not given)
. | -1 | Nc1ccc(-c2cc3ccccc3oc2=O)cc1
-0.9 | . | CCOC(=O)CC(=O)CSc1nc(-c2cccs2)cc(-c2ccc(OC)cc2)c1C#N
. | -11 | CCN1CCN(C(=O)CC2OC(=O)c3ccccc32)CC1 (stereo not given)
. | -20 | CCCc1cc(C(=O)Nc2sc3c(c2C#N)CCC(C(C)(C)C)C3)no1 (stereo not given)

MgrA DNA FP | Sa helicase inh | Compound
. | -6 | COC1(NC(=O)c2ccccc2)C(C)=CC(=O)C=C1C
1.3 | 17 | S=c1[nH]nc(-c2ccco2)n1Cc1ccccc1
-3.8 | . | Cn1nc(C(F)(F)F)c(CNc2ccc(Cl)cc2)c1Cl
. | -8 | c1cc(CNC2CCCCCC2)cs1
-2.1 | . | O=C(NNc1c(Cl)cncc1Cl)Nc1ccc(Cl)cc1
2.3 | . | O=C1N/C(=N\c2ccccn2)SC1Cc1ccc(F)cc1 (stereo not given)
-2.2 | 17 | Cc1ccc(N=Cc2c[nH]c3ccccc23)c(C)c1
. | -20 | O=c1[nH]cnc2onc(-c3ccc(F)cc3)c12
-1.7 | 8 | CC(=O)Nc1c(OC(C)=O)c2ccccc2oc1=O
. | -16 | Cn1cc(NC(=O)NCC2COc3ccccc3O2)c2ccccc2c1=O (stereo not given)
-2.3 | 7 | COc1cccc(-c2noc(C3CCCN(S(=O)(=O)c4ccccc4F)C3)n2)c1 (stereo not given)
. | 19 | CCOC(=O)c1nn(-c2ccccc2)c(=O)cc1OCC(=O)NCc1ccc2c(c1)OCO2
. | -5 | O=C(COC(=O)c1ccccc1C(F)(F)F)Nc1c(F)cccc1F
. | 14 | Nc1nc2ccc(SC(F)F)cc2s1
-2.0 | . | Cc1onc(-c2c(Cl)cccc2Cl)c1-c1nc2cccc(F)c2c(=O)o1
. | 1 | Cc1cc(=O)n(CC(=O)NC(C)C)c2c1c(C)nn2-c1ccccc1
-3.1 | 5 | COc1ccc2c(C)nc(NC3=NC(c4ccccc4)CC(=O)N3)nc2c1 (stereo not given)
2.9 | . | O=C(NNC(=S)Nc1cccc(Cl)c1)c1ccncc1
-0.7 | 8 | COc1nnc(-c2ccc(N3CCOCC3)c(NS(=O)(=O)c3ccc(C)cc3)c2)c2ccccc12
1.2 | -5 | Cc1ccc(NC(=O)C23CCC(C)(C(=O)C2)C3(C)C)cc1 (stereo not given)
. | -2 | Cc1ccc2c(c1)sc(=NC(=O)CN1C(=O)c3ccccc3C1=O)n2C
. | 9 | COc1cccc(C(=O)OC2CC(C)N(C)CC2C)c1 (stereo not given)
-1.9 | . | Cn1nc(-c2ccc(S(N)(=O)=O)s2)cc1C(F)(F)F
. | -3 | Cc1ccc(NNC(=O)c2cc(C)on2)c(C)c1
. | -20 | Cc1ccc(-c2nnc(SCc3csc(-c4ccccc4)n3)n2N)cc1

Among those listed so far, 4 contain a cyano group.
MgrA DNA FP | Sa helicase inh | Compound
1.5 | . | CN1CN=C(SCc2ccc(C#N)cc2)NC1
. | 14 | COc1ccc(C2CC(=O)N3CN(C(C)c4ccccc4)CSC3=C2C#N)cc1 (stereo not given)
-0.9 | . | CCOC(=O)CC(=O)CSc1nc(-c2cccs2)cc(-c2ccc(OC)cc2)c1C#N
. | -20 | CCCc1cc(C(=O)Nc2sc3c(c2C#N)CCC(C(C)(C)C)C3)no1 (stereo not given)

The listing continues.
MgrA DNA FP | Sa helicase inh | Compound
-2.0 | 2 | Cc1cccc(C)c1NC(=O)N1C2CCC1CC(O)(c1cccnc1)C2 (stereo not given)
0.9 | . | CCCCC[C@H](O)/C=C/[C@@H]1[C@H](C/C=C\CCCC(=O)O)[C@@H](O)C[C@H]1O
0.6 | -18 | COc1ccc(N=C2C(=O)N3c4c(cc(C)cc42)C(C)=CC3(C)C)cc1
0.9 | 9 | CC(C)Cn1c(=O)c2sccc2n2c(CCCC(=O)N(C)Cc3ccco3)nnc12
1.3 | 0 | COc1ccc(-c2cc(-c3ccccc3)c(C#N)c(SCS(=O)Cc3ccccc3)n2)cc1 (stereo not given)
5.2 | 6 | Cc1[nH]n(-c2nc(-c3ccccc3)cs2)c(=O)c1N=Nc1ccc(O)cc1
-2.0 | . | Cc1cc(-c2onc(C)c2C(=O)O)no1
. | 4 | Nc1nc(C(=O)N2CCOCC2)nn1S(=O)(=O)c1ccccc1
5.5 | -1 | CS(=O)(=O)Nc1ccc(C2=NN(S(C)(=O)=O)C(c3ccccc3F)C2)cc1 (stereo not given)
-3.3 | . | O=C1CSC(=O)N1CCS(=O)(=O)c1ccc(Cl)cc1
1.6 | 6 | CCOc1ccc2c(=O)c(Oc3ccccc3Br)coc2c1
. | -6 | CC(c1ccccc1)n1cnc2ccccc21 (stereo not given)
. | -7 | Cc1cc(C)c(C=C2C(=O)OC(C)(C)OC2=O)[nH]1
0.7 | 21 | CCOc1ccc2[nH]c3nc(=S)[nH]nc3c2c1
-1.4 | -9 | Cc1ccccc1NC(=O)OC1CCCCC1
1.1 | 9 | Cc1cc(C)nc(N/C(=N/S(=O)(=O)c2ccc(Br)cc2)N2CCC(C)CC2)n1
-1.1 | . | COc1cc2c(cc1OC)N=CCC2
-2.6 | . | CC(C)(C)C(=O)Nc1cccc(Cl)c1Cl
0.2 | . | CN1C(=O)CC(C(=O)Nc2ccccc2)SC1=Nc1ccc(Cl)c(C(F)(F)F)c1 (stereo not given)
-1.3 | 6 | COC(=O)c1c(F)c(F)c(Oc2ccc(Cl)cc2)c(F)c1N1CCCCC1
-2.4 | 0 | CCOC(=O)c1c(NC=O)sc2c1CCCC2
. | 2 | OC1C2CC3CC(C2)CC1C3 (stereo not given)
. | -11 | O=C(Nc1nc2ccccc2[nH]1)c1ccc(F)cc1
-1.6 | -6 | O=C(NCCN1CCCCC1)c1ccco1
. | -8 | Cc1nc2ccccc2c(=O)n1CC(=O)NC(N)=O

Compound profiles (already shown). Screens in order: MgrA DNA FP	Sa helicase inh
O=C1CSC(=O)N1CCS(=O)(=O)c1ccc(Cl)cc1 is entered as -3.3	.
CCCCC[C@H](O)/C=C/[C@@H]1[C@H](C/C=C\CCCC(=O)O)[C@@H](O)C[C@H]1O is entered as 0.9	.
O=C(NCCN1CCCCC1)c1ccco1 is entered as -1.6	-6

Marked active in MgrA DNA FP (from the list above):
MgrA DNA FP | Sa helicase inh | Compound
61* | . | Cc1ccc(C)n1C(CC(=O)O)c1ccsc1 (stereo not given)

Next structures follow.
MgrA DNA FP | Sa helicase inh | Compound
-1.2 | 15 | CC(C)NC(=O)c1ccc2c(Cl)c3c(nc2c1)CCCC3
1.4 | -28 | Cc1ccc(C)n1CCN1CCN(C(=O)CC#N)CC1
0.5 | . | CCCCCCCCC#CCC#CCC#CCCCC(=O)O
-0.6 | . | COc1ccc(CNc2ccccc2C(=O)O)cc1OC
1.1 | -1 | COC(=O)c1sc(S(=O)(=O)N2CCN(c3ccccc3OC)CC2)c(C(=O)OC)c1C
3.4 | . | CCOc1ccccc1/C=N/Nc1nc(-c2ccccc2)cs1
1.4 | . | CNc1nc(-c2ccccc2)nc(-c2ccccc2)c1C#N
-1.4 | 10 | O=C(Cn1cnc2c(nnn2-c2cccc(Cl)c2)c1=O)OCc1ccccc1
-2.6 | -4 | COC(=O)c1ccccc1NC(=O)Nc1ccc(N2CCOCC2)c2nonc12
2.2 | . | Oc1ccc(-c2nccc(-c3ccccn3)n2)cc1
. | 14 | CC(C)(C)NC(=O)COc1ccc(CNc2ncn[nH]2)cc1
-1.4 | . | O=C(NCCSCc1ccco1)c1ccc(Cl)cc1
0.0 | . | Cc1nc(C)c(-c2cnc(NS(=O)(=O)c3ccc(Cl)cc3)nc2)s1
0.1 | -5 | COc1ccc(NC(=O)CCC(=O)c2ccc(OC)cc2)cc1
-4.4 | . | CC(=O)Oc1ccc(-n2c(C)cc(/C=C3\C(=O)NC(=S)N(c4ccccc4)C3=O)c2C)cc1
2.1 | 0 | COc1ccc(/C=C/C(=O)Nc2nc(N)n(-c3ccccc3)n2)cc1
. | -4 | CCn1c(=O)c2sccc2n2c(CCC(=O)NCc3ccccc3)nnc12
2.1 | 11 | COC(=O)/C(=C/c1ccc(F)cc1)NC(C)=O
. | -15 | Cc1cc(C)n2nc(C(=O)N(C)C(c3ccccc3)c3ccccc3)nc2n1
-2.6 | 20 | Nc1ccc2nc(CCCc3nc4ccc(N)cc4s3)sc2c1
2.1 | 2 | O=C(O)C1Cc2c([nH]c3ccccc23)C(Cc2ccccc2)N1 (stereo not given)
. | 7 | COc1cc(Nc2cc(C)nc3ncnn23)cc(OC)c1OC
1.4 | 4 | N#Cc1c(NC(=O)c2ccc(Cn3cc(Br)cn3)o2)sc2c1CCCCC2
-1.4 | -1 | COC1=NS(=O)(=O)c2ccccc21
-0.4 | . | O=c1onc(-c2cccc(Cl)c2)n1-c1ccccc1
. | -14 | CCOC(=O)Cn1c(=O)oc2cc(S(=O)(=O)N(CCN(C)C)Cc3ccccc3)ccc21
. | -1 | COCC(C)Nc1oc(-c2ccc(Cl)cc2)nc1C#N (stereo not given)
